# From PubChem
# SMN2 splice enh = increases expression of the SMN2 splice variant. HEK293 SMN2-luciferase splicing reporter, luminescence, 30-36 h. Potency, µM (top dose mostly 46.1 µM), for inactives: at the top dose activity change, positive = activation, usual class: activators. 210,000 tested, 2.8% active. AID 1458; also: % of control where 0% means no effect; nearly all actives have a fitted effect of over 55% in size
#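 qHTS luciferase splicing reporter: luminescence rises when SMN2 exon 7 is included in transfected HEK293 cells. Compound exposure lasted 30-36 h at 37C, with 4.5 mM final sodium butyrate as control, followed by a ONE-Glo read.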
# GAA inh = alpha-glucosidase (human) inhibition. P10253. purified human GAA, 4-MU-alpha-glucoside fluorescence. Potency, µM (doses to about 76.9 µM), inactives show top-dose activity change, negative = inhibition, actives largely listed as inhibitors. 200,000 tested, 0.005% active. AID 1466;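 also: plate controls were uninhibited enzyme wells for no effect and no-enzyme background for full effect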
#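 Human alpha-glucosidase, 4 nM, pre-mixed with test compounds before 400 uM 4-methylumbelliferyl substrate; 20 min room temperature at pH 5.0. Fluorescence read after pH 10 stop; AC50 values from Hill-equation fits.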
# KDM4E inh = inhibitors of human JMJD2E histone demethylase | B2RXH2 | Potency, µM (titrated, usually from 57.1 µM), for the others: top-dose activity change, negative = inhibition, actives largely listed as inhibitors | JMJD2E catalytic domain, FDH-coupled NADH fluorescence (FDH is formaldehyde dehydrogenase) | 230,000 tested, 1.6% active; active = well fitted inhibition curve with a large enough effect, not every such curve was filed as active; inconclusive = small, poorly fitted or top-dose-only effect, or another doubt; inactive = no such curve, though single readings can be large or run the other way;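 also: 0% = wells with enzyme and -100% = buffer wells without enzyme; nearly all actives have a fitted effect of over 50% in size; many of its hits are not listed in these tables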
# Target sequence (B2RXH2 1-337 limits assumed): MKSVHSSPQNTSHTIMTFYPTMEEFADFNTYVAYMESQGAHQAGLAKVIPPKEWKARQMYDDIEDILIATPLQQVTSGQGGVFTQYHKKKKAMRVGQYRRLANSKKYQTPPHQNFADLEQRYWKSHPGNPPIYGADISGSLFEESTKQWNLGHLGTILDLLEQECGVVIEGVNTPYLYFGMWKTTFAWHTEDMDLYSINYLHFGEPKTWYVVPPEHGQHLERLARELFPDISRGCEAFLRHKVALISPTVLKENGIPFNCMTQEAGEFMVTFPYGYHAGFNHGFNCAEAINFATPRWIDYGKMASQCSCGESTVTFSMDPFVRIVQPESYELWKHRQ
# GLA spleen mod = inhibits or activates alpha-galactosidase in human spleen homogenate; Potency, µM (titrated, usually from 80 µM), without a hit: at the highest dose activity change, negative = inhibition, actives largely listed as inhibitors; 240,000 tested, 0.008% active; human spleen homogenate, 4MU-alpha-Gal fluorescence, 40 min; AID 2107; P06280;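 also: 0% = enzyme with vehicle and -100% = no enzyme basal signal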
# Target sequence (P06280 32-429 limits assumed): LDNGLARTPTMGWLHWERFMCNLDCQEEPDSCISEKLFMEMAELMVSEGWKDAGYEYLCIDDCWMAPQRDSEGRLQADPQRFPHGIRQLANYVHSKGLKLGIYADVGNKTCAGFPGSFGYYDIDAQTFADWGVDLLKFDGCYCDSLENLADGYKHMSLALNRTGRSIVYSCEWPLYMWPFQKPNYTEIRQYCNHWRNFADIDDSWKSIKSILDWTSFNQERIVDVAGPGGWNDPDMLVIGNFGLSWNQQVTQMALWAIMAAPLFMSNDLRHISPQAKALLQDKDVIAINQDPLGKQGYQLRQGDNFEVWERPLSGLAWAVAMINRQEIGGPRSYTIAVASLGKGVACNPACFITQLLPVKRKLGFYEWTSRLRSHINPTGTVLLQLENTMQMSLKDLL
#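 Human spleen homogenate (1 ug) was the enzyme source, with 4-methylumbelliferyl-alpha-D-galactopyranoside (1 mM final) in pH 5.0 citrate buffer with 0.01% Tween-20. Compounds were titrated; after 40 min at 37C, NaOH/glycine stop, 4-MU fluorescence read; AC50 from Hill fits.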
# GAA glycogen mod = inhibitors or activators of human alpha-glucosidase glycogen cleavage. P10253. AID 2100. recombinant GAA, glycogen substrate, Amplex Red glucose oxidase fluorescence. 300,000 tested, 0.38% active. Potency, µM (series often up to 76.4 µM), without a hit: at the highest dose activity change, negative = inhibition, actives largely listed as inhibitors;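 also: 0% = full enzyme reaction and -100% = no-enzyme basal signal; the screen sought inhibitors and activators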
#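 Natural-substrate format: glycogen cleavage by 4 nM human enzyme, glucose read by Amplex Red coupling (Ex 573, Em 610 nm). Normalized to enzyme and no-enzyme controls.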
# GAA spleen mod = lysosomal alpha-glucosidase (human) modulation; AID 2112; Potency, µM (titrated, usually from 79.9 µM), without a hit: at the top dose activity change, negative = inhibition, actives largely listed as inhibitors; 240,000 tested, 0.006% active; human spleen homogenate, 4-MU-alpha-glucoside fluorescence;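 also: 0% = enzyme with vehicle and -100% = no enzyme basal signal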
#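 Compounds were titrated against alpha-glucosidase in spleen homogenate at pH 5.0, with 1 mM 4-methylumbelliferyl substrate for 40 min at 37 C. Reactions were quenched with pH 10 NaOH/glycine and fluorescence measured.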
# GoLoco inh red = RGS12 GoLoco-Gai1 interaction inhibition. P63096. Gai1:RGS12 GoLoco peptide FP, rhodamine, 10 min. Potency, µM (highest dose often 61.6 µM), for the others: at the top dose activity, negative = inhibition, hits mostly inhibitors. 230,000 tested, 0.44% active. AID 880; active = well fitted inhibition curve with a large enough effect, not every such curve was filed as active; inactive = no such curve, though single readings can be large or run the other way; also: % is scaled to controls: 0 for no effect and ±100 for the full control effect; nearly all actives have a fitted effect of over 30% in size; many of its hits are not listed in these tables
# * = called active by the depositor; ? = inconclusive; . = not tested or not shown; & = joins results of further samples; [ ] = dose if it differs, or a comment. Unless noted, calls follow the shape of the dose curve; as a rule, active = well fitted curve in the direction sought with a large enough effect; inconclusive = small, poorly fitted or top-dose-only effect, or another doubt; inactive = no such curve, though single readings can be large; an effect the other way counts as inactive or inconclusive. Potency is read from the fitted curve at half-maximal effect.
SMILES,SMN2 splice enh,GAA inh,KDM4E inh,GLA spleen mod,GAA glycogen mod,GAA spleen mod,GoLoco inh red
N=C1C(=O)OCC1c1cc(Cl)ccc1NC(=O)Nc1ccccc1 (stereo not given),-16%,10%,-22%,4%,-21%,0%,2%
O=C(O)CSCCC(=O)Nc1ccc(F)cc1,.,-1%,-2%,7%,11%,4%,.
CC(=O)Nc1cccc(OC(=O)c2ccoc2C)c1,23%,?,?,21%,30%,7%,7%
Cn1c(N)c(C(=O)COC(=O)[C@@H]2CCCN2S(=O)(=O)c2ccc(Cl)cc2)c(=O)n(C)c1=O,.,-1%,-2%,8%,-9%,6%,-1%
Nc1nnc(-c2cccc(Cl)c2Cl)c(N)n1,-23%&0%,-13%&-3%[15.4 µM],-10%&4%&2%&14%,-4%&12%&-21%&-11%,4%&4%,-16%&12%&2%&1%,-2%&8%&3%&2%
Cc1n[nH]c(=S)c2nn(-c3ccccc3F)c(C)c12,21%,-11%,-4%,3%,-3%,-6%,43%[activator]
O=C(O)Cc1ccc2oc(-c3cccnc3)nc2c1,24%,0%,-15%,-1%,-8%,-22%,4%
CC(=O)/C=N/Nc1ccccc1,-12%,-6%,-2%,-13%,-8%,-20%,-1%
c1csc(C2=Nn3c(nnc3-c3ccncc3)SC2)c1,-2%,.,1%,7%,1%,0%,-7%
CCOc1ccc(-c2c[n+](=O)c3c(n2[O-])CCCC3)c(OCC)c1,-2%,1%,-5%,-1%,2%,0%,-9%
COc1ccc(C2C(C(=O)NCCN(C)C)c3cc(OC)c(OC)cc3C(=O)N2C)cc1OC (stereo not given),13%,4%,3%,-2%,-9%,-5%,-8%
CCOC(=O)c1c(N)n[nH]c1-c1ccc(OC)cc1,?,-11%,-13%,-3%,-14%,-7%,7%
CCN1CCN(c2ccc([N+](=O)[O-])cc2S(=O)(=O)N2CCOCC2)CC1,4%,-10%,13%,-9%,1%,-1%,5%
C=CCn1c(=O)c2ccccc2n2c(SCC(=O)Nc3sc(C(=O)N(CC)CC)c(C)c3C(=O)OCC)nnc12,-19%,1%,?,1%,-3%,-1%,8%
COc1ccc(NC(=O)Cn2c(=O)n(Cc3ccco3)c(=O)c3ccccc32)cc1,-9%,-7%,-4%,-3%,5%,-1%,3%
CCOC(=O)CC1C(=O)NCCN1S(=O)(=O)c1ccc(F)cc1 (stereo not given),-13%,0%,2%,-5%,27%,-5%,6%
COc1ccccc1NC(=O)C(NC(=O)OC(C)(C)C)C(C)OCc1ccccc1 (stereo not given),-2%,-9%,5%,-9%,-8%,-3%,3%
CCOC(=O)/C=C1\SCC(=O)N1CC(=O)Nc1cccc(F)c1,9%,1%,-2%,-1%,-5%,1%,37%[activator]
CCOC(=O)c1cc(-c2ccc(F)cc2)n(CC(=O)NCc2cccnc2)c1C,-13%,-3%,7%,8%,5%,-3%,2%
CCOC(=O)c1[nH]c(C)c(C(=O)N(C)C)c1C,.,-3%,-4%,8%,1%,1%,1%
Cc1[nH]c2ccccc2c(=O)c1CN1CCCCC1,23%,0%,8%,-3%,0%,-7%,2%
COc1ccc(CCN(C)C(=O)CNC(=O)c2ccccc2F)cc1OC,-2%,-2%,6%,6%,-8%,3%,-2%
N#Cc1ccc(CSc2nnc(-c3cccnc3)n2-c2ccccc2)cc1,2%,4%,1%,-2%,1%,5%,9%
O=C(c1ccccc1)N1CCN2C(=O)c3ccccc3C12c1ccc(Cl)cc1 (stereo not given),-31%[inhibitor],2%,-3%,-12%,-6%,-1%,4%
CN1C(=O)N(CN2CCCCC2)C2C1N(C)C(=O)N2CN1CCCCC1 (stereo not given),5%,0%,0%,-10%,4%,-5%,4%
O=C(COC(=O)CCOc1ccccc1)Nc1ccc(Cl)cn1,32%,2%,-3%,-2%,4%,-8%,7%
COc1ccc(Br)cc1CNC(=O)C1CCN(C(=O)N(C)C)CC1,2%,2%,1%,-9%,6%,-1%,6%
N/C(Cc1ccc([N+](=O)[O-])cc1)=N\OC(=O)c1ccccc1F,.,?,4%,2%,11%,4%,6%
CCc1ccc2c(c1)C(c1ccncc1)=NNC(c1ccccc1)=N2,17%,-16%,17%,4%,-4%,-2%,-5%
Cc1cccc(-n2c(-c3csc(C)c3)n[nH]c2=S)c1,-2%,-2%,-25%,6%,-20%,4%,0%

# Brought forward from above: 5 compounds; new compounds follow.
SMILES,SMN2 splice enh,GAA inh,KDM4E inh,GLA spleen mod,GAA glycogen mod,GAA spleen mod,GoLoco inh red
O=C(COC(=O)CCOc1ccccc1)Nc1ccc(Cl)cn1,32%,2%,-3%,-2%,4%,-8%,7%
COc1ccc(Br)cc1CNC(=O)C1CCN(C(=O)N(C)C)CC1,2%,2%,1%,-9%,6%,-1%,6%
N/C(Cc1ccc([N+](=O)[O-])cc1)=N\OC(=O)c1ccccc1F,.,?,4%,2%,11%,4%,6%
CCc1ccc2c(c1)C(c1ccncc1)=NNC(c1ccccc1)=N2,17%,-16%,17%,4%,-4%,-2%,-5%
Cc1cccc(-n2c(-c3csc(C)c3)n[nH]c2=S)c1,-2%,-2%,-25%,6%,-20%,4%,0%
Cc1cccc(NC(=O)CSc2nnc(Cc3ccccc3)o2)c1,.,-5%,-4%,4%,-9%,-21%,8%
COCCNC(=O)C1(C)C=CC2(CCCCC2)N1C(=O)c1ccccc1 (stereo not given),-5%&-5%,?,11%&6%,1%&-2%,6%,-1%&-20%,-5%&-3%
Cc1cc(C)nc(Nc2ccc(C(=O)O)cc2)n1,11µM*,2%,10%,3%,0%,3%,12%
CCCN1C2CCCC1CC(NC(=S)Nc1ccc(OC)cc1)C2 (stereo not given),.,?,0%,-1%,-21%,10%,17%
CC(=O)c1cccc(NC(=O)N2CCCC2C(=O)NCCc2ccccc2)c1 (stereo not given),13%,-1%,2%,-2%,2%,0%,6%
CCCCC(=O)Nc1cccc(NC(=O)CC)c1,5%,-4%,1%,1%,-6%,0%,7%
COc1ccc(CC2(CO)CCN(Cc3ccc(NC(C)=O)cc3)CC2)cc1,.,-12%,-4%,0%,12%,-9%,0%
N#Cc1cc2c(N)c(C(=O)Nc3ccccc3)sc2nc1N,?,3%,?,5%,-1%,-11%,0%
c1coc(CNc2c3c(nc4ncnn24)CCC3)c1,-1%,3%,4%,-4%,-7%,-5%,-9%
Cc1cc(NC(=O)CSc2nc(-c3ccc(F)cc3)cs2)no1,20%,-14%,7%,0%,2%,2%,-1%
Cc1ccc(NC(=O)c2ccc(CN3CCN(C)CC3)cc2)cc1Nc1nccc(-c2cccnc2)n1,.,.,.,-4%&3%,.,-1%&4%,47%&2%[activator]
O=C(O)CCCC(=O)Nc1c(F)c(F)c(F)c(F)c1F,12%,-4%,-12%,29%,26%,10%,-18%
Cc1cc(C)n(-c2ccc(C(=O)N3CCC(CO)(Cc4ccccc4)CC3)cc2)n1,.,10%,-7%,2%,6%,-2%,-5%
Cc1ccc(OCC(=O)N(Cc2ccccc2)C(C)(C)C)c([N+](=O)[O-])n1,-13%,-3%,-3%,-6%,11%,-7%,36%[activator]
CC1Cn2c(nc(=O)c3c2NCN(CCc2ccccc2)C3)S1 (stereo not given),.,2%,0%,-5%,-18%,4%,-2%
CN(C)c1ccc(/C=N/NC(=O)C(=O)/C=C2\NC3(CCCC3)Cc3ccccc32)cc1,6%,?,2%,1%,-2%,-9%,34%[activator]
CC(C)CN(C(=O)CSc1nnc(-c2ccco2)o1)c1c(N)n(Cc2ccccc2)c(=O)[nH]c1=O,0%,2%,-12%,1%,3%,-3%,-9%
Cc1ccccc1OCC(=O)N/N=C/c1ccc([N+](=O)[O-])o1,-35%[inhibitor],0%,-2%,-4%,6%,-2%,7%
CCCCCC(=O)Nc1ncc2c(n1)CC(c1cccs1)CC2=O (stereo not given),.,-8%,-2%,5%,-3%,-3%,-13%
CCc1nnc(NC(=O)Cc2ccc(OCc3c(C)noc3C)cc2)s1,16%,?,-1%,3%,2%,-4%,0%
CCOc1cccc2c1OC1(C)CC2NC(=O)N1c1ccc(OC)cc1 (stereo not given),-4%,3%,3%,-4%,4%,-1%,-5%
O=C(NC(=S)N1CCN(C/C=C/c2ccccc2)CC1)c1c(F)cccc1F,-1%,6%,-7%,-8%,4%,-14%,0%
Cn1c(N2CCOCC2)c(/C=N/O)c2ccccc21,-11%,9%,-5%,3%,?,2%,22%
COc1cc(C)c(Cl)c(C)c1S(=O)(=O)NC1CC(C)(C)NC(C)(C)C1,.,0%,12%,0%,9%,-5%,2%
O=C(c1ccccc1)n1ccc(-c2cnc(-c3ccccc3)s2)n1,3.5µM*,-2%,?,11%,8%,6%,16%
CC(NC(=O)OCc1ccccc1)C(=O)OCN1C(=O)c2ccccc2C1=O (stereo not given),-21%,-7%,2%,2%,6%,1%,1%
Cc1ccc(C2CCN(C(=S)NC(C)C)C2)cc1 (stereo not given),.,3%,5%,0%,1%,-15%,9%
COc1cc(/C=N/N2CCOCC2)ccc1OCc1ccccc1,?,-12%,-1%,4%,?,7%,2%
O=C(CSc1nc2ccccc2n1CC(=O)N1CCOCC1)N1CCCC1,0%,9%,-1%,6%,5%,0%,-1%
O=C(Nc1nc2ccc(Cl)cc2s1)c1ccc(N2CCCCC2)c([N+](=O)[O-])c1,-19%,4%,0%,0%,3%,-7%,6%

# Record cards (already shown).
# O=C(Nc1nc2ccc(Cl)cc2s1)c1ccc(N2CCCCC2)c([N+](=O)[O-])c1 across the screens: SMN2 splice enh: -19%; GAA inh: 4%; KDM4E inh: 0%; GLA spleen mod: 0%; GAA glycogen mod: 3%; GAA spleen mod: -7%; GoLoco inh red: 6%
# O=C(c1ccccc1)n1ccc(-c2cnc(-c3ccccc3)s2)n1 across the screens: SMN2 splice enh: 3.5µM*; GAA inh: -2%; KDM4E inh: ?; GLA spleen mod: 11%; GAA glycogen mod: 8%; GAA spleen mod: 6%; GoLoco inh red: 16%

# Not all compounds are listed; rates above refer to the full screens.
